Compound activity (PubChem)
HIV Env fusion = blocks HIV Env-driven cell-cell fusion; inhibition, % at 12.3 µM; hit rate 1.1% among 360,000; AID 651610; HeLa-JRFL Env/CEM21 cell fusion, luciferase;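 active means mean replicate inhibition score of at least 50 and every replicate individually at or above 50; inconclusive means only one of the two criteria met; inactive means mean below 50 and not all replicates reaching 50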;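 further: 0% = plate neutral controls and 100% = maraviroc near 300 nM; one replicate is shown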
PABP FP inh = blocks human PABP binding to poly(A) RNA. P11940. fluorescence polarization. inhibition, % at 35 µM. hit rate 1% among 290,000. AID 2014;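 active means 50% or more with normal probe brightness, or confirmed in later tests; inconclusive means above 50% with abnormal brightness, or retests that disagree; inactive means below 50% or failed in later tests; about a fifth of its hits are not listed in these tables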;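 further: calls also rest on retests at 20 µM and on dose response follow-up; controls were probe without protein and protein plus probe with vehicle; some compounds called inactive have numbers as strong as hits; many hits fall short of the cut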
Target sequence (P11940 whole entry, looked up): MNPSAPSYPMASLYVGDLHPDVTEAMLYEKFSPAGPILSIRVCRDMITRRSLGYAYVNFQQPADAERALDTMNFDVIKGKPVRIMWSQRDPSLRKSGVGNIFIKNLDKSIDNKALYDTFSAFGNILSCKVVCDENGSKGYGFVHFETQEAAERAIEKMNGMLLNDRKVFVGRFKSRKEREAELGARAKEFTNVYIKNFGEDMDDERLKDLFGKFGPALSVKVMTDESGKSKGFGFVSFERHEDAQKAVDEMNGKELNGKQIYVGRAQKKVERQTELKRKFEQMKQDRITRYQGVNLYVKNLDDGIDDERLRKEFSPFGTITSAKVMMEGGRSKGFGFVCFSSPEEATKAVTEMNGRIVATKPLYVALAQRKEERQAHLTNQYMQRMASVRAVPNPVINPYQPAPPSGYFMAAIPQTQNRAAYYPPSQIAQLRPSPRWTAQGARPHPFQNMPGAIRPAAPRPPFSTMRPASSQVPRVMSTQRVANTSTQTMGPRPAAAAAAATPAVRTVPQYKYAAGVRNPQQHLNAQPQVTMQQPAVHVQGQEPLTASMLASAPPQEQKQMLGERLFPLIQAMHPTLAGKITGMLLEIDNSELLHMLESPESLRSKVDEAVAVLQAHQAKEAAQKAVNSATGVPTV
CSC inhib = blocks cancer stem cells; cancer stem cell-like cells viability, luminescence; inhibition, % at 7.5 µM; hit rate 1.1% among 300,000; AID 2717;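 active means mean at 75% or more and at least half the replicates too; inconclusive means mean and replicates disagree; tested in HMLE shEcad cells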;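 further: 0% = median of negative and 100% = median of positive control wells; the first replicate is given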
Rce1 inh = inhibitors of yeast Ras-converting enzyme; Q03530; calls only; yeast membranes, quenched prenylated peptide cleavage fluorescence; hit rate 0.27% among 290,000;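 active means fall in fluorescence gain of 50% or more versus controls, with final raw signal at or below 3038400; inconclusive means same 50% fall but final raw signal above 3038400; inactive means fall in fluorescence gain under 50%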;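 further: plate controls were neutral control wells for no effect and wells lacking membranes for full effect; tested at 10 µM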
Yeast UUG start = alters start codon recognition fidelity in yeast. activity score, % at 18.7 µM. S. cerevisiae UUG-firefly luciferase reporter, luminescence/redox ratio. hit rate 0.13% among 350,000;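 active means replicate mean at a twofold rise or more, about +100% in these data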;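 further: firefly luciferase made from a UUG start codon reports start codon fidelity; reporter light over untreated wells divided by growth signal over untreated wells; some hits fall short of that in this replicate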
MT1-MMP act inh = inhibitors of human MT1-MMP activation | P50281 | HT1080 RFP-PRO-GFP cells, GFP/RFP ratio fluorescence, overnight; percent of plate control window, DMSO zero | GFP/RFP ratio change, % at 20 µM | hit rate 0.061% among 360,000 | AID 651647;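 active means GFP/RFP ratio change of at least 30% with cell ATP level not reduced by more than half and red fluorescence within 50% of control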; further: strong numbers were not always called active
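Material: RFP-PRO-GFP reporter HT1080 cells. Dosing: single-point 20 µM compound, 1% DMSO. Controls: DMSO and RFP-L50D-GFP cell wells. Timing: cells overnight before dosing, compound overnight, 37 °C, 5% CO2. Measure: GFP/RFP fluorescence ratio.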
eIF4H inh = inhibitors of RNA binding by human eIF4H; eIF4H fluorescence polarization binding assay; hit rate 0.94% among 290,000; inhibition, % at 35 µM;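 active means 50% or more with normal probe brightness, or confirmed in later tests; inconclusive means above 50% with abnormal brightness, or retests that disagree; inactive means below 50% or failed in later tests; about a fifth of its hits are not listed in these tables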;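 further: calls also rest on retests at 20 µM and on dose response follow-up; 0% = protein and probe with vehicle and 100% = probe without protein; strong numbers were not always called active; many hits fall short of the cut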
MT1-MMP act inh RFP = further read-out of MT1-MMP act inh, marked with its call; RFP signal change, %; measured here: RFP expression control read;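 0 = vehicle wells; hits needed this value within 50% of zero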
An asterisk follows results filed as active; i = inactive; ? = inconclusive; / = no result given. A portion of the library; the hit share may differ from the screen's.

SMILES	HIV Env fusion	PABP FP inh	CSC inhib	Rce1 inh	Yeast UUG start	MT1-MMP act inh	MT1-MMP act inh RFP	eIF4H inh
COc1ccc(C2c3c(-c4ccccc4O)n[nH]c3C(=O)N2Cc2ccco2)cc1OC (stereo not given)	10	-13	-14	i	/	1	-2	-8
Cc1nc(N2CCN(C(=O)c3ccco3)CC2)c2c3c(sc2n1)CC(C)CC3 (stereo not given)	17	-3	1	i	/	-2	-14	5
Cc1ccc(NC(=S)N/N=C2/CCCCc3ccccc32)cc1	-5	6	69	i	-23	2	-1	18
COc1cccc(NC(=O)n2ncc3c(C)cccc32)c1	-167	3	55	i	-74	1	-1	4
Cc1ccc(S(=O)(=O)N2CCN(C(=O)COC(=O)c3cc(C)oc3C)CC2)cc1	/	-2	2	i	-16	4	1	9
CC(=O)N(CC(=O)O)c1ccccc1	0	1	-8	i	/	2	6	3
CCc1cccc(Nc2cnn(C34C[C@@H]5C[C@@H](CC(CC(=O)O)(C5)C3)C4)c(=O)c2Cl)c1	5	-1	-17	i	/	-5	1	-3
O=C(CCCn1c(=O)[nH]c2ccsc2c1=O)NCc1cccs1	-73	8	-24	i	-1	-2	1	-8
Cc1cc(C)n2nc(C(=O)N/N=C/c3ccco3)nc2n1	-14	15	-10	i	/	-3	-3	-3
COc1ccc2[nH]c3c(c2c1)CCN1C(=O)N([C@@H](C)C(=O)NCCc2ccc(OC)c(OC)c2)C(=O)[C@]31C	/	5	0	i	6	2	-2	-5
S=C(NCCc1ccccc1)Nc1ccccc1	-28	-1	0	i	-25	4	-1	0
O=S(=O)(CCN1CCCCC1)Oc1ccc(Cl)cc1Cl	1	6	8	i	2	5	1	0
C=CCNC(=S)N/N=C/c1ccc(-c2cccc([N+](=O)[O-])c2)o1	1	1	30	i	/	0	3	2
CCN(CC(=O)Nc1c(F)cccc1F)C(=O)c1ccc(N2CCCC2=O)cc1	-5	/	-12	i	/	-2	2	/
COc1c(O)cccc1/C=N/NC(=O)Cn1ccnc1C	4	-8	26	i	-16	3	3	0
Cc1ccc(Cl)c(NC(=O)CN2CCN(C=O)CC2)c1	/	-2	-16	i	/	/	/	-2
Cc1cccc(-c2nnn3c2nc(NCCc2ccc(S(N)(=O)=O)cc2)c2ccccc23)c1	-226	5	-6	i	-20	0	1	4
CC(=O)c1ccccc1C(=O)N1CCCC(CCC(=O)N2CCN(c3ccccn3)CC2)C1 (stereo not given)	12	-5	-4	/	-15	-2	-3	-4
CCOC(=O)c1c(NC(=O)CN(C)C)sc(C(=O)N(CC)CC)c1C	-7	3	-8	i	-10	-2	1	-1
CC(C)n1nnnc1-c1ccc(Cl)cc1	6	6	-6	i	-10	2	2	0
CCC(=O)Nc1ccc(CCC(=O)N2CCCC2)cc1	-23	9	-12	i	-21	4	4	1
COc1ccc(NS(=O)(=O)c2ccc3c(c2)[C@H]2C=CC[C@H]2[C@@H](c2ccc(C(=O)O)cc2)N3)cc1	-4	82*	-8	i	-4	-2	0	97*
Cc1cc(Nc2nnnn2-c2ccccc2)n(-c2ccc(Cl)cc2)n1	/	3	37	i	-11	0	-19	-3
Cc1cc(C)nc(NS(=O)(=O)c2ccc(NC(=O)c3ccccc3C)cc2)n1	-56	-1	-14	i	-7	-2	0	1
CCc1nnc(NC(=O)CS(=O)(=O)c2ccccc2)s1	-1	0	15	i	-12	-1	4	-10
O=C(Nc1cc(Cl)cc(Cl)c1)C1C2C=CC3(O2)C1C(=O)N(CCCN1CCOCC1)C3C(=O)NC1CCCCC1 (stereo not given)	-33	-10	10	i	-3	-3	1	-14
CC(=O)Nc1ccc(NC(=O)C(C)OC(=O)CC2CCCCC2)cc1 (stereo not given)	/	/	-18	i	-10	3	3	/
O=C(NCc1ccccc1)c1cccc(COc2ccc3c(c2)CCC3)c1	31	-7	-8	i	/	-2	-7	-4
O=C(NC(=S)Nc1ccc(N2CCCCC2)cc1)c1ccc2c(c1)OCCO2	-21	-2	6	i	/	-5	-20	-7
Cc1ccccc1C(=O)NNC(=O)c1cc(N)cc([N+](=O)[O-])c1	-4	10	0	i	-4	-8	-1	3
COc1ccc2c(c1[N+](=O)[O-])CCC/C2=N/OC(=O)c1ccccc1SC	/	3	/	i	-9	-6	-2	1
COC(=O)N/N=C/c1ccc(-c2cccc(Cl)c2)o1	7	12	-3	i	/	13	-2	4
Cc1c(C(=O)NC(C)CCc2ccccc2)cccc1[N+](=O)[O-] (stereo not given)	/	-5	1	i	-9	1	1	1
COc1ccc(NC(=O)Cc2coc3cc(C)c(C(C)C)cc23)cc1S(=O)(=O)N1CCOCC1	?	-8	20	i	/	-3	-14	3
Cc1ccc2nc(-c3ccccc3)cc(C(=O)NCC(c3ccco3)N(C)C)c2c1 (stereo not given)	-1	/	-9	i	0	0	-1	/
COc1ccccc1NC(=O)N1CCN(c2cc(-c3ccccc3)nc3ncnn23)CC1	/	-1	/	i	2	6	-9	-8
COc1cc(NC(=O)c2cc(Cl)nnc2Cl)cc(OC)c1OC	-6	9	41	i	-14	3	-2	-10
COc1ccc(CNC(=O)c2cc3c(C)nc4ccccc4c3o2)c(OC)c1	/	8	15	i	-9	7	-25	-2
Cc1ccc(C)c(/C(O)=C2\C(=O)C(=O)N(CCCn3ccnc3)C2c2cccnc2)c1 (stereo not given)	/	0	3	i	1	2	4	2
CCN1C(=O)/C(=C\N2CCN(c3ccccc3)CC2)SC1=S	/	-2	/	i	-10	4	-1	-6

Part of the list above in another layout.
SMILES,HIV Env fusion,PABP FP inh,CSC inhib,Rce1 inh,Yeast UUG start,MT1-MMP act inh,MT1-MMP act inh RFP,eIF4H inh
O=C(NC(=S)Nc1ccc(N2CCCCC2)cc1)c1ccc2c(c1)OCCO2,-21,-2,6,i,/,-5,-20,-7
Cc1ccccc1C(=O)NNC(=O)c1cc(N)cc([N+](=O)[O-])c1,-4,10,0,i,-4,-8,-1,3

Continued.
SMILES	HIV Env fusion	PABP FP inh	CSC inhib	Rce1 inh	Yeast UUG start	MT1-MMP act inh	MT1-MMP act inh RFP	eIF4H inh
Cc1cc(C(=O)COC(=O)c2ccc[nH]c2=O)c(C)n1-c1ccccc1F	-45	-3	3	i	/	-5	-5	-13
OCCCn1c(-c2ccccc2)nc(=S)c2c1CCCC2	-93	-1	/	i	-12	-2	-1	8
COc1ccc(CNC(=O)c2ccccc2NC(=O)C2=CSCCO2)c(OC)c1	4	16	-7	i	1	0	-7	-17
Cc1ccc(-n2cc(CNCCCn3ccnc3C)c(-c3ccc(F)cc3)n2)cc1	14	12	-1	i	-2	3	-5	-6
Cc1cc(C)c(-c2cc(C(=O)Nc3cc(C)ccc3C)[nH]n2)c(O)c1	2	14	/	i	-7	0	-3	2
Cc1cccc(C(=O)Nc2ccc3ccccc3c2)c1	-138	8	15	i	-11	0	2	0
CC(C)N(Cc1nccn1C)C(=O)CC1C(=O)NCCN1Cc1ccc(F)cc1 (stereo not given)	-4	9	6	i	-2	-4	-5	2
N#Cc1c(Cl)cccc1Oc1ccc(S(=O)(=O)Nc2ccccc2)cc1	2	4	21	i	-10	3	-13	-7
CC(=O)c1cccc(NC(=O)CO/N=C2/CCCc3nonc32)c1	-9	-5	-7	i	/	-1	-2	10
O=C1CC(c2ccco2)CC(O)=C1C=NCCO (stereo not given)	/	13	0	i	17	-8	1	7
COc1ccc(S(=O)(=O)N2CCN(CC(=O)Nc3ccc(F)c(F)c3)CC2)cc1	/	0	-4	i	8	-4	0	0
C1CN(c2nc3nonc3n3nnnc23)CCO1	28	2	3	i	442*	-1	1	-8
CCCCCSc1nc(C)c(CC(=O)O)c(=O)[nH]1	/	4	4	i	-19	1	-5	-8
O=S1(=O)CCN(C2CCCC2)CC1	-7	/	/	/	-13	-1	5	/
Cc1cc(C)cc(OCc2nnc(N)s2)c1	2	-1	-8	i	/	6	3	9
Cc1ccc(C(=O)NCCCn2ccnc2)cn1	/	-9	-18	/	/	5	7	-4
CC(NC(=O)CN(C)S(=O)(=O)c1cccc2nsnc12)c1ccccc1 (stereo not given)	-5	-5	0	i	-14	-2	2	9
Cc1cccc(OCc2nnc(SCC(=O)O)n2Cc2ccccc2)c1	3	-8	-16	i	-7	2	3	-9
C/C(=N\NC(=O)CC#N)C1COc2ccccc2O1 (stereo not given)	-13	5	0	i	/	-1	8	7
Cc1ccc(C)c(NS(=O)(=O)c2cc(C(=O)NCc3ccco3)ccc2C)c1	-125	12	0	i	-10	2	-3	0
COc1cc(Cl)c(C)cc1NC(=O)COc1ccccc1[N+](=O)[O-]	-44	-13	-13	i	-3	1	1	-5
CCOC(=O)CSc1nnc(NC(=O)NC(C)C)s1	9	-15	0	i	/	-2	0	-6
FC(F)(F)c1ccc(-c2nc(=S)[nH][nH]2)cc1	-9	-8	-9	i	-34	2	-1	-2
Fc1ccc(/C=N/c2c(-c3ccc(F)cc3)nc3n2CCS3)cc1	/	-5	7	i	-3	-6	2	-1
CCNC(=O)C1(C)CCCN(C(=O)/C=C/c2ccccc2)C1 (stereo not given)	-6	/	/	/	6	4	5	/
COc1ccc(CCn2c(=O)[nH]c3cc(C(=O)N4CCN(c5ccccn5)CC4)ccc3c2=O)cc1OC	8	6	-6	i	-4	3	3	-1
Cc1ccccc1NC(=S)NNC(=O)c1csc2c1CCC(C)C2 (stereo not given)	-279	-4	9	i	-50	4	1	16
COCC1CCN(Cc2nc(-c3cccs3)no2)C1 (stereo not given)	-20	2	-8	i	/	-3	-1	5
Cn1c(=O)c2c(nc(Cl)n2CCOc2ccccc2)n(C)c1=O	-43	-11	-8	i	-3	-5	-18	-5
CCc1ccc(N2C(=O)C3NN=C(C(=O)OCc4ccccc4)C3C2=O)cc1 (stereo not given)	-11	-6	10	i	-7	0	1	6
CC(=O)Oc1ccccc1-c1nc(/C=C/c2ccccc2)no1	-44	-1	/	i	4	0	0	-15
O=C(Nc1cccc2ccccc12)N1CCOCC1	-51	0	-13	i	-12	7	2	8
Cc1cc(NC(=O)CCC(=O)N(CC(=O)NC2CCCC2)c2ccc(F)cc2)no1	-12	0	/	i	6	1	4	-1
CC1=C(C(=O)Nc2cc(C)ccn2)C(c2ccc(C)cc2)C2=C(CCCC2=O)N1 (stereo not given)	/	12	-9	i	3	2	-5	3
CCN1CCCC1CNCc1cccc(OC)c1OCc1ccccc1F (stereo not given)	/	23	2	i	-16	6	5	-8
Cc1ccccc1C(=O)Nc1ccc(CN2CCOCC2)cc1	0	-6	/	i	-8	-3	3	-6
O=C(Nc1ccc(F)cc1F)C1(c2cccs2)CCOCC1	4	-6	-3	i	/	-2	4	-1
COc1ccccc1-c1c(C(F)(F)F)oc2cc(OCC(=O)Nc3cc(C)ccc3C)ccc2c1=O	/	-1	5	i	/	/	/	1
CCCNc1nc2c(c(=O)n(C)c(=O)n2C)n1CCC(C)C	/	2	-5	i	-5	4	-18	-14
COc1ccc(-c2nn(-c3ccccc3)cc2C(=O)Nc2ccc(C(=O)O)cc2)cc1	-4	-7	/	i	-14	-4	0	-7
CCOC(=O)c1cnc2ccccc2c1Nc1cccc(C(=O)O)c1	-11	12	4	/	-16	1	-2	0
CC(=O)N1CCC(O)(c2cccc(C(F)(F)F)c2)CC1	/	-8	6	i	-17	1	-1	2

Reformatted with bars between the fields: two of the compounds above
mol | HIV Env fusion | PABP FP inh | CSC inhib | Rce1 inh | Yeast UUG start | MT1-MMP act inh | MT1-MMP act inh RFP | eIF4H inh
COc1ccccc1-c1c(C(F)(F)F)oc2cc(OCC(=O)Nc3cc(C)ccc3C)ccc2c1=O | / | -1 | 5 | i | / | / | / | 1
CCCNc1nc2c(c(=O)n(C)c(=O)n2C)n1CCC(C)C | / | 2 | -5 | i | -5 | 4 | -18 | -14
